gsp antag – gsp mutant antagonism. gsp-mutant cells, cAMP HTRF, 30 min; control for the full effect not named in the record. Potency, µM (series often up to 76.9 µM), without a hit: top-dose activity change, negative = inhibition, usual class: inhibitors. actives 0.4% (n = 340,000); active = falling curve of any shape with a large fitted effect; inconclusive = falling curve, mostly with a smaller effect; inactive = flat or rising curve; cell line not stated here;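 also: intracellular cAMP measured with PDE inhibitor Ro 20-1724 present during compound exposure; potency is read from the fitted curve at half-maximal effect; % is scaled to controls: 0 for no effect and ±100 for the full control effect; nearly all actives have a fitted effect of over 65% in size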
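G418-selected cells were plated in DMEM/10% FBS for 16-24 h at 37C, then treated with compounds plus the PDE inhibitor […] (300 uM solution added) for 30 min at 37C. Intracellular cAMP was measured by HTRF after 30 min lysis at room temperature.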
Menin-MLL FL inh – inhibitors of human menin-MLL interaction, wild-type MLL peptide. Fluorescence polarization, fluorescein-MLL peptide displacement from menin. FP activity change, % at 61.4 µM. 290,000 tested, under 10 active. AID 1766; inconclusive = falling polarisation curve, or a change in total fluorescence; inactive = total fluorescence flat and polarisation flat or rising; no compound was filed as active; the % refers to the polarisation; negative = inhibition;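 also: % of control where 0% means no effect; inhibitors lower the polarisation; unlabelled MLL peptide was the positive control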
TRPV1 potentiator – enhances activation of the human vanilloid receptor TRPV1; actives 0.02% (n = 320,000); AID 540277; potentiation, % at 8.33 µM; Q8NER1; TRPV1-expressing cells, Fluo-8 calcium influx, capsaicin EC20 potentiation; host cell line not named in the record; control for the full effect not named in the record; active means potentiation above 80%; inconclusive means 30% to 80%; inactive means below 30%; also: 0% is about no effect
Target sequence (Q8NER1 whole entry, looked up): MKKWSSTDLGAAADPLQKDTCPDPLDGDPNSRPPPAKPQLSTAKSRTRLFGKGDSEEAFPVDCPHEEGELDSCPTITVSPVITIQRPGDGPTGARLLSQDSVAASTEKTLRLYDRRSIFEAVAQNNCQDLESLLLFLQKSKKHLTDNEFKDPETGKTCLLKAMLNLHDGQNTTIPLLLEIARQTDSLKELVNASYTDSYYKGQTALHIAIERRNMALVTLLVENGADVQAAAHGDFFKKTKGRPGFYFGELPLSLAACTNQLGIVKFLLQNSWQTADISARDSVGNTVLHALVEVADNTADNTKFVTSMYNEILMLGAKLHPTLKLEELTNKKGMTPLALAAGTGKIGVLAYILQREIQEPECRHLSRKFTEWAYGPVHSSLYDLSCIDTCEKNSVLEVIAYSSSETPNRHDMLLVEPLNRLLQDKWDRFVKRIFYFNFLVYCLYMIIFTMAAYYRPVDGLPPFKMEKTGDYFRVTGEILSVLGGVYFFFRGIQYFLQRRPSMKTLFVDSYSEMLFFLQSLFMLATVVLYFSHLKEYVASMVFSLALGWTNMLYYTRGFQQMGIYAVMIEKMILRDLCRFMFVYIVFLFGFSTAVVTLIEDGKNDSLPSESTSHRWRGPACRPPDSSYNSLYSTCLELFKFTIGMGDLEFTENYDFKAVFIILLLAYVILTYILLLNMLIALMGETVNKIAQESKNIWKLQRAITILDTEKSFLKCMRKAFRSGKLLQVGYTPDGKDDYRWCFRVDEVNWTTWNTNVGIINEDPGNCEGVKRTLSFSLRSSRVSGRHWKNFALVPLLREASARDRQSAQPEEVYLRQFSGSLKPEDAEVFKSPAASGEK
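Cells expressing TRPV1 were dye-loaded with Fluo-8 and read kinetically: 10 s baseline, 3 min after compound (agonist portion), then 2 min after EC20 capsaicin (allosteric enhancer portion). Calcium-bound dye fluorescence at 480/520 nm.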
D2 PAM – positive allosteric modulators of human D2 dopamine receptor. DiscoveRx D2 beta-arrestin cells, luminescence, 90 min; 100% = 57 uM dopamine signal. actives 0.23% (n = 360,000). P14416. potentiation, % (no concentration beside the values). AID 624464; active = potentiation of 50% or more; inconclusive = 30% to 50%; inactive = 30% or less;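 also: compound concentration not given in the record; tested on top of an EC20 dose of dopamine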
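D2 cells co-treated with compound plus 50 nM dopamine (EC20) for 90 min at 37 deg C to detect potentiation. Beta-arrestin recruitment was read as enzyme-fragment luminescence after 1 h at ambient temperature. Full response was set by 57 uM dopamine.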
gsp ag – agonists of gsp mutant (McCune-Albright syndrome); gsp mutant cells, cAMP HTRF, 30 min; control for the full effect not named in the record; AID 624287; actives 0.13% (n = 340,000); Potency, µM (doses to about 76.9 µM), for the others: at the highest dose activation (cAMP increase), hits mostly activators; active = well fitted activation curve with a large enough effect; inconclusive = small, poorly fitted or top-dose-only effect, or another doubt; inactive = no such curve, though single readings can be large or run the other way; cell line not stated here;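 also: phosphodiesterase inhibitor Ro 20-1724 added with compounds to block cAMP breakdown; potency is read from the fitted curve at half-maximal effect; nearly all actives have a fitted effect of over 60% in size; about a fifth of the inactives were tested at one dose only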
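Cells stably selected in G418 were plated at 2000/well, grown 16-24 hr, then given compounds in DMSO with the PDE inhibitor […] (300 uM solution added) for 30 min at 37C; cAMP was read by HTRF.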
Sfp PPTase inh – inhibitors of Bacillus subtilis Sfp phosphopantetheinyl transferase; Q9F4F7; Biochemical Sfp PPTase activity, qHTS; Potency, µM, without a hit: max response, negative = inhibition, actives largely listed as inhibitors; actives 3.5% (n = 310,000); active = well fitted inhibition curve with a large enough effect; inconclusive = small, poorly fitted or top-dose-only effect, or another doubt; inactive = no such curve, though single readings can be large or run the other way;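 also: the enzyme is Sfp with the accession as filed and its product quenches rhodamine fluorescence; potency is read from the fitted curve at half-maximal effect; 0% = enzyme reaction without inhibitor and -100% = no enzyme wells; top concentration of the series not given in the record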
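Reaction rates are the 30-min fluorescence difference (ex 525, em 598 nm) in wells containing 15 nM Sfp, 5 uM rhodamine-CoA and 12.5 uM BHQ-2-YbbR at pH 7.6 with 10 mM MgCl2.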
ClpP mod – qHTS Assay for Activators of ClpP | Potency, µM (series often up to 57.5 µM), for inactives: at the highest dose activity change, negative = active | purified B. subtilis ClpP, FRET peptide cleavage, 20 min | actives 1.9% (n = 340,000) | ATP-dependent Clp protease proteolytic subunit (Bacillus subtilis (strain 168)), P80244; active = well fitted falling curve with a large enough effect; inconclusive = small, poorly fitted or top-dose-only effect; inactive = no such curve, though single readings can be large or run the other way; also: potency is read from the fitted curve at half-maximal effect; the source files actives as falling curves though it sought activators and does not explain the sign; nearly all actives have a fitted effect of over 65% in size; many hits overshoot -100%
Target sequence (P80244 whole entry, looked up): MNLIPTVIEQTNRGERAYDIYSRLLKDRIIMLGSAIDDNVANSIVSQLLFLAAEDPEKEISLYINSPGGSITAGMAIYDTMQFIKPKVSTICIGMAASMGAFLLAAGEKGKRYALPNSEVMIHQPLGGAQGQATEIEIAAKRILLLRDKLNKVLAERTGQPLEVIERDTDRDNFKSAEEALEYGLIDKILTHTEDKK
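Buffer: 100 mM Tris/HCl pH8, 100 mM KCl, 0.05% low protease BSA, 2.5% glycerol, 0.01% Tween-20. ClpP 10 microg/mL final; 20 min RT; delta FRET normalized to ADEP and DMSO controls.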
Numbers without * were called inactive; [ ] = another dose, or the depositor's remark.

O=C(NCc1ccccn1)C12CC3CC(CC(C3)C1)C2 was read as gsp antag -2%, Menin-MLL FL inh 0.1, TRPV1 potentiator -4, D2 PAM -8, gsp ag -10%[15.4 µM] and Sfp PPTase inh 5%.
For COc1ccc(CCC(=O)Nc2ncc(C)s2)cc1 the results were gsp antag 5%, Menin-MLL FL inh -3.6, TRPV1 potentiator 30, D2 PAM -6, gsp ag 2%, Sfp PPTase inh 8% and ClpP mod 0.7%.
COc1ccccc1/C=C/C(=O)N1CCN(S(=O)(=O)c2cccs2)CC1 was read as gsp antag -15%, D2 PAM 2, gsp ag -19% and ClpP mod 0.2%.
For CC1=NN(c2ccccc2)C(=O)C1N=Nc1cccc(O)c1 (stereo unspecified) the results were gsp antag -13%, Menin-MLL FL inh -2.1, TRPV1 potentiator -5, D2 PAM -14, gsp ag -2% and Sfp PPTase inh -14%.
`Cc1ccc2nc3c(cc2c1)c(NC(=O)c1ccco1)nn3CC(C)C` gave gsp antag -10%, Menin-MLL FL inh 1.5, TRPV1 potentiator 7, D2 PAM -1, gsp ag 0%[15.4 µM], Sfp PPTase inh 26% and ClpP mod -1.6%.
For O=C(c1ccco1)N1CCN(C(=O)c2cc3ccccc3oc2=O)CC1 the results were gsp antag 5%, TRPV1 potentiator -7, D2 PAM 1, gsp ag 52%[15.4 µM], Sfp PPTase inh 7% and ClpP mod -14%.
Screening Cc1ccc(C)c(NC(=O)NCc2ccccn2)c1 returned gsp antag 13%, Menin-MLL FL inh 5.8, TRPV1 potentiator -3, D2 PAM -22, gsp ag -4%, Sfp PPTase inh 11% and ClpP mod -1.5%.
For COc1ccc(-c2nc(CSCC(=O)N3CCc4ccccc4C3)c(C)o2)cc1OC the results were gsp antag -12%, Menin-MLL FL inh -1.8, TRPV1 potentiator 10, D2 PAM -10, gsp ag 8%, Sfp PPTase inh -20% and ClpP mod 4.4%.
For CCOc1ccc(S(=O)(=O)Nc2ccccc2C(=O)NCc2ccco2)cc1 the results were gsp antag -9%, Menin-MLL FL inh 0.9, TRPV1 potentiator 9, D2 PAM -2, gsp ag -1%, Sfp PPTase inh inconclusive and ClpP mod 25µM*.
`CC1CC(C)CN(CC(=O)NNC(=O)COc2ccc(Cl)cc2)C1` (stereo unspecified) gave gsp antag 12%, TRPV1 potentiator 4, D2 PAM 3, gsp ag 20% and ClpP mod -12%.
O=C(OCn1nnc2ccccc2c1=O)C1=COCCO1 was read as gsp antag 19%, Menin-MLL FL inh 1.8, TRPV1 potentiator -3, D2 PAM -14, gsp ag -7%, Sfp PPTase inh 14% and ClpP mod 0.4%.
Screening COc1ccc(NC(=O)C2CCCN2C(=O)OC(C)(C)C)cc1 (stereo unspecified) returned gsp antag 7%, Menin-MLL FL inh -6.1, TRPV1 potentiator -4, D2 PAM -2, gsp ag -47%[inhibitor] and Sfp PPTase inh 15%.
O=S(=O)(c1cccc(F)c1)N1CCCN(c2ccc(C(F)(F)F)cn2)CC1 was read as gsp antag -4%, Menin-MLL FL inh 3.0, TRPV1 potentiator -27, D2 PAM -3, gsp ag 3%[15.4 µM], Sfp PPTase inh 2% and ClpP mod -1.1%.
`CCOC(=O)c1cc2ccccc2n1CCN(CC)CC` gave gsp antag -2%, Menin-MLL FL inh 4.1, TRPV1 potentiator -7, D2 PAM -17, gsp ag -62%, Sfp PPTase inh -1% and ClpP mod -23%.
Screening N#CCSc1nccc(-c2cc(Cl)sc2Cl)n1 returned gsp antag -7%, Menin-MLL FL inh 3.7, TRPV1 potentiator 20, D2 PAM -2, gsp ag -32%[inhibitor], Sfp PPTase inh 4% and ClpP mod inconclusive.
Screening COCCNC(=S)N1CCN(c2nc(-c3ccccc3)cs2)CC1 returned gsp antag inconclusive, Menin-MLL FL inh 1.2, TRPV1 potentiator -3, D2 PAM -7, gsp ag -11%, Sfp PPTase inh 3% and ClpP mod -0.1%.
`O=C(Cn1nc2n(c1=O)-c1ccccc1SC2)N/N=C/c1ccncc1` gave gsp antag 3%, Menin-MLL FL inh 2.4, TRPV1 potentiator 1, D2 PAM 13, gsp ag 1%[15.4 µM], Sfp PPTase inh 14% and ClpP mod -1.4%.
`Cc1ccc(-n2nnnc2-c2cnc(-c3cccnc3)nc2C(F)(F)F)cc1` gave gsp antag inconclusive, Menin-MLL FL inh -0.8, TRPV1 potentiator -4, D2 PAM -6, gsp ag 20%, Sfp PPTase inh 4% and ClpP mod -3.5%.
For COC(=O)c1cc(S(=O)(=O)NCC2CCN(Cc3cc(C)ccc3C)CC2)cn1C the results were gsp antag 6%, TRPV1 potentiator -10, D2 PAM -16, gsp ag -1%, Sfp PPTase inh 6% and ClpP mod -0.2%.
`CCN(CC(=O)Nc1ccc(NC(C)=O)cc1)C(=O)C1(c2ccccc2)CC1` gave gsp antag 0%, TRPV1 potentiator 0, D2 PAM -6, gsp ag 27% and ClpP mod -0.4%.
Screening CCCCN(C)C(=O)c1sc2ncn(CC)c(=O)c2c1C returned gsp antag -4%, Menin-MLL FL inh 1.8, TRPV1 potentiator 17, D2 PAM -6, gsp ag -3%, Sfp PPTase inh 4% and ClpP mod -1.1%.
O=C(CSc1nc2ccccc2c(=O)n1Cc1ccco1)NCCN1C(=O)CSC1=O was read as gsp antag 0%, Menin-MLL FL inh 5.6, D2 PAM -2, gsp ag -11%[15.4 µM] and Sfp PPTase inh -3%.
Cc1ccc(S(=O)(=O)N2CCOCC2)cc1NC(=O)Cn1c(=O)ccn(Cc2ccccc2)c1=O was read as gsp antag -4%, D2 PAM -16, gsp ag inconclusive and ClpP mod -0.1%.
For OCC[C@H]1C[C@@H](O)[C@H](O)[C@]2(CCCO2)O1 the results were gsp antag 4%, D2 PAM -12 and ClpP mod 0.2%.
`O=C(c1ccccc1Br)N1CCn2c1nc1ccccc12` gave gsp antag 11%, Menin-MLL FL inh -2.3, TRPV1 potentiator -13, D2 PAM -3, gsp ag 8%, Sfp PPTase inh -7% and ClpP mod 0.1%.
COc1ccc(-c2cc3c(=O)n(CC(=O)NCCCc4ccccc4)ncn3n2)cc1 was read as gsp antag 2%, Menin-MLL FL inh -0.6, TRPV1 potentiator -5, D2 PAM -5, gsp ag -33%, Sfp PPTase inh 4% and ClpP mod 4.3%.
Screening COC(=O)c1cc(OCC(=O)Nc2ccc3c(c2)CCC3)cc(C(=O)OC)c1 returned gsp antag -7%, D2 PAM -18, gsp ag -17%[15.4 µM] and ClpP mod 0.6%.
For CC(=O)N(C(C)=O)c1nc2nc(C)cc(C)n2n1 the results were gsp antag -3%, Menin-MLL FL inh 7.4, TRPV1 potentiator inconclusive, D2 PAM -1, gsp ag 15%[15.4 µM] and Sfp PPTase inh -19%.
COc1ccc(N2CCN(S(=O)(=O)c3cc4c5c(c3)C(C)C(=O)N5CCC4)CC2)cc1 (stereo unspecified) was read as gsp antag -20%, TRPV1 potentiator 5, D2 PAM -1, gsp ag -3% and ClpP mod -11%.
Screening COc1ccccc1-n1c(CNC(=O)COc2ccccc2)n[nH]c1=S returned gsp antag 0%, Menin-MLL FL inh 0.3, TRPV1 potentiator -2, D2 PAM -11, gsp ag 23%, Sfp PPTase inh -27% and ClpP mod -3.5%.
CC(=NCCCNC1CCCCC1)C1=C(O)CC(C)(C)CC1=O was read as gsp antag 3%, Menin-MLL FL inh -0.3, TRPV1 potentiator 0, D2 PAM -49, gsp ag -1%, Sfp PPTase inh 6% and ClpP mod -0.2%.
For O=C(NCc1ccccc1C(F)(F)F)C1CC(c2cccc(F)c2)=NO1 (stereo unspecified) the results were gsp antag 7%, Menin-MLL FL inh -1.1, TRPV1 potentiator 13, D2 PAM -10, Sfp PPTase inh 10% and ClpP mod 0.5%.
COc1ccc(NC(=O)c2oc3ccccc3c2CSC)cc1S(=O)(=O)N1CCOCC1 was read as gsp antag 9%, D2 PAM 2 and gsp ag -9%.
Screening CCc1c(-c2ccccc2)nc2sc3c(c2c1N)CCCC3 returned gsp antag 35µM*, Menin-MLL FL inh -1.4, TRPV1 potentiator 2, D2 PAM -15, gsp ag 6%[15.4 µM], Sfp PPTase inh 1% and ClpP mod -3.3%.
C=CCN(c1ccccc1OC)S(=O)(=O)c1cccc(C(=O)NCc2cccs2)c1 was read as gsp antag -34%, TRPV1 potentiator -18, D2 PAM -30, gsp ag -5%[15.4 µM] and ClpP mod 0.4%.
Screening COc1cc2nc(CN(C)Cc3ccc(Cl)cc3)[nH]c(=O)c2cc1OC returned Menin-MLL FL inh 0.6, TRPV1 potentiator 4, D2 PAM -21, gsp ag -8%[15.4 µM] and Sfp PPTase inh 7%.
For O/N=C/c1ccccc1OCc1ccccc1Cl the results were gsp antag -16%, Menin-MLL FL inh 2.5, TRPV1 potentiator 16, D2 PAM -4, gsp ag -18%, Sfp PPTase inh 13% and ClpP mod -2.4%.
Cc1ccc(NC(=O)C(C)N2CCN(C)CC2)cc1S(=O)(=O)N1CCOCC1 (stereo unspecified) was read as gsp antag 2%, TRPV1 potentiator 0, D2 PAM -1, gsp ag 0% and ClpP mod 0.5%.
Cc1cc(C)cc(C(=O)NC(CC(N)=O)c2ccc(N3CCC(Br)CC3)c([N+](=O)[O-])c2)c1 (stereo unspecified) was read as gsp antag 4%, Menin-MLL FL inh 0.6, TRPV1 potentiator 8, D2 PAM -14, Sfp PPTase inh 17% and ClpP mod 1.4%.
`CS(=O)(=O)N(CC(=O)Nc1cccnc1)c1ccc2c(c1)OCO2` gave gsp antag 9%, Menin-MLL FL inh -2.6, TRPV1 potentiator -3, D2 PAM -5, gsp ag 3%, Sfp PPTase inh 8% and ClpP mod -0.5%.
Screening CCOc1cccc(OCCOCCN(C)C)c1 returned gsp antag 5%, Menin-MLL FL inh 6.2, TRPV1 potentiator -8, D2 PAM -9, gsp ag 2%, Sfp PPTase inh -7% and ClpP mod -2.2%.

At a glance, some entries already given:
Screening COc1cc2nc(CN(C)Cc3ccc(Cl)cc3)[nH]c(=O)c2cc1OC returned Menin-MLL FL inh 0.6, TRPV1 potentiator 4, D2 PAM -21, gsp ag -8%[15.4 µM] and Sfp PPTase inh 7%.
For O/N=C/c1ccccc1OCc1ccccc1Cl the results were gsp antag -16%, Menin-MLL FL inh 2.5, TRPV1 potentiator 16, D2 PAM -4, gsp ag -18%, Sfp PPTase inh 13% and ClpP mod -2.4%.
